Screening results (PubChem)
A1 apoptosis 2: A1 inhibition read as caspase activation. MEF A1-2A-BIM cells, caspase-Glo luminescence, 3 h; percent of clofoctol response, DMSO zero. 24,000 tested, under 10 active. caspase activation, % (concentration not given with the values). AID 2465; in the data active = caspase activation above about 5.9%;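 note: wells of about 30 µL received 50 nL stock; the first replicate is given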
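system = A1-2A-BIM-expressing MEF cells | quantity = 2500 MEF cells/well | dosing = 50 nL compound per well, pinned | schedule = overnight cell settling, then 3 h compound exposure, 37 °C | signal = luminescence from DEVD-luciferin Caspase-Glo reagent, 1:1 in 50 mM HEPES, 1 h RT | read-out = Caspase-3/7 activation, seen as rise in luminescence signal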
* = called active by the depositor.

`C[C@@H]1CN([C@H](C)CO)C(=O)c2cc(NC(=O)Nc3ccc4c(c3)OCO4)ccc2O[C@H]1CN(C)C(=O)Nc1ccc(F)cc1` gave A1 apoptosis 2 1.8.
Screening COc1ccc(S(=O)(=O)N(C)C[C@H]2Oc3c(NS(=O)(=O)c4cn(C)cn4)cccc3C(=O)N([C@H](C)CO)C[C@@H]2C)cc1 returned A1 apoptosis 2 0.5.
Screening C[C@@H]1CN([C@H](C)CO)C(=O)CCCn2cc(nn2)CO[C@H]1CN(C)Cc1cccc(O)c1 returned A1 apoptosis 2 0.7.
C[C@H]1CCCCO[C@@H](CN(C)C)[C@@H](C)CN([C@@H](C)CO)C(=O)c2cc(NC(=O)Nc3ccc(C(F)(F)F)cc3)ccc2O1 was read as A1 apoptosis 2 0.1.
`CC12N=C3SCc4ccccc4CN3[C@H](c3ccccc3O1)[C@H]2CO` gave A1 apoptosis 2 -1.3.
For C[C@H]1CCCCO[C@@H](CN(C)C(=O)Nc2ccc(F)cc2)[C@@H](C)CN([C@@H](C)CO)C(=O)c2cc(NC(=O)Nc3ccc(C(F)(F)F)cc3)ccc2O1 the results were A1 apoptosis 2 -0.5.
Screening CC(C)NC(=O)N(C)C[C@@H]1Oc2ccc(NC(=O)Nc3ccc(C(F)(F)F)cc3)cc2C(=O)N([C@@H](C)CO)C[C@H]1C returned A1 apoptosis 2 -0.4.
For C[C@H](CO)N1C[C@H](C)[C@H](CN(C)Cc2ccc(Oc3ccccc3)cc2)Oc2ccc(NC(=O)c3ccncc3)cc2CC1=O the results were A1 apoptosis 2 0.0.
Screening C[C@@H]1CN([C@@H](C)CO)C(=O)Cc2cc(NS(=O)(=O)c3ccc(Cl)cc3)ccc2O[C@@H]1CN(C)Cc1ccc(Cl)c(Cl)c1 returned A1 apoptosis 2 -0.1.
For C[C@@H]1CN([C@H](C)CO)C(=O)c2cccc(NS(=O)(=O)c3cccs3)c2O[C@H]1CN(C)C(=O)Nc1ccc(F)cc1 the results were A1 apoptosis 2 1.3.
`C[C@H]1CN([C@@H](C)CO)C(=O)CCCn2nncc2CO[C@H]1CN(C)Cc1ccc(C(F)(F)F)cc1` gave A1 apoptosis 2 -0.3.
C[C@@H]1CN([C@@H](C)CO)C(=O)c2cccc(NS(C)(=O)=O)c2O[C@@H]1CN(C)Cc1ccc(C(=O)Nc2ccccc2N)cc1 was read as A1 apoptosis 2 -0.3.
For C[C@@H]1CN([C@@H](C)CO)C(=O)Cc2cc(N(C)C)ccc2O[C@@H]1CN(C)S(C)(=O)=O the results were A1 apoptosis 2 -0.3.
C[C@@H]1CN([C@H](C)CO)C(=O)c2cc(NC(=O)CCC(F)(F)F)ccc2O[C@@H](C)CCCCO[C@H]1CN(C)C(=O)Cc1ccccc1 was read as A1 apoptosis 2 -0.4.
C[C@@H]1CN([C@@H](C)CO)C(=O)c2cccc(NC(=O)c3ccc(-c4nccs4)cc3)c2O[C@H]1CN(C)C was read as A1 apoptosis 2 -0.5.
`Cc1noc(C)c1NC(=O)Nc1ccc2c(c1)C(=O)N([C@H](C)CO)C[C@H](C)[C@H](CN(C)S(=O)(=O)c1cn(C)cn1)O2` gave A1 apoptosis 2 0.1.
Screening C[C@@H]1CN([C@@H](C)CO)C(=O)c2cccc(N(C)C)c2O[C@H]1CN(C)Cc1ccc(C(=O)Nc2ccccc2N)cc1 returned A1 apoptosis 2 1.0.
`C[C@H](CO)N1C[C@H](C)[C@H](CN(C)C(=O)NC2CCCCC2)Oc2ccc(NC(=O)Nc3ccccc3)cc2CC1=O` gave A1 apoptosis 2 1.3.
For C[C@@H]1CCCCO[C@@H](CN(C)C(=O)Nc2ccc(C(F)(F)F)cc2)[C@H](C)CN([C@H](C)CO)C(=O)c2cc(NC(=O)Nc3ccc(F)cc3)ccc2O1 the results were A1 apoptosis 2 -1.1.
Screening C[C@@H]1CCCCO[C@@H](CN(C)C(=O)Nc2ccc(F)cc2)[C@H](C)CN([C@@H](C)CO)C(=O)c2cc(NC(=O)Nc3cccc4ccccc34)ccc2O1 returned A1 apoptosis 2 1.5.
For C[C@@H]1CCCCO[C@@H](CN(C)C)[C@@H](C)CN([C@H](C)CO)C(=O)c2cc(NC(=O)Nc3ccc(F)cc3)ccc2O1 the results were A1 apoptosis 2 -0.9.
Screening C[C@@H]1CN([C@H](C)CO)C(=O)c2cc(NC(=O)c3ccncc3)ccc2O[C@@H](C)CCCCO[C@H]1CN(C)S(=O)(=O)c1ccc(F)cc1 returned A1 apoptosis 2 0.8.
`O=C(NO)c1ccc(C(=O)N/N=C/c2cccnc2Cl)cc1` gave A1 apoptosis 2 1.2.
COC(=O)CCCCCCC(=O)N/N=C/c1ccc(OC)cc1O was read as A1 apoptosis 2 -0.4.
`CNC[C@@H]1OCCCC[C@H](C)Oc2ccc(NC(=O)Nc3cccc4ccccc34)cc2C(=O)N([C@@H](C)CO)C[C@H]1C` gave A1 apoptosis 2 0.6.
COc1ccc(NC(=O)N(C)C[C@H]2OCCCC[C@@H](C)Oc3ccc(NC(=O)Nc4ccc(C(F)(F)F)cc4)cc3C(=O)N([C@H](C)CO)C[C@@H]2C)cc1 was read as A1 apoptosis 2 -0.1.
For Cc1noc(C)c1NC(=O)Nc1ccc2c(c1)C(=O)N([C@@H](C)CO)C[C@@H](C)[C@@H](CN(C)S(=O)(=O)c1ccc(F)cc1)O2 the results were A1 apoptosis 2 1.1.
C[C@H]1CN([C@@H](C)CO)C(=O)c2cc(NC(=O)Cc3ccccc3)ccc2O[C@@H]1CN(C)S(=O)(=O)c1ccc(Cl)cc1 was read as A1 apoptosis 2 -1.0.
`Cc1noc(C)c1NC(=O)Nc1ccc2c(c1)C(=O)N([C@@H](C)CO)C[C@H](C)[C@H](CN(C)Cc1ccc(C(=O)O)cc1)OCCCC[C@H](C)O2` gave A1 apoptosis 2 1.0.
C[C@@H]1CN([C@@H](C)CO)C(=O)c2cccc(NS(=O)(=O)c3ccc(Cl)cc3)c2O[C@@H]1CN(C)S(=O)(=O)c1ccc(Cl)cc1 was read as A1 apoptosis 2 -0.6.
Screening C[C@@H]1CN([C@@H](C)CO)C(=O)c2cc(NC(=O)NC3CCCCC3)ccc2O[C@@H](C)CCCCO[C@@H]1CN(C)C(=O)NC1CCCCC1 returned A1 apoptosis 2 1.3.
For COc1ccc(CN(C)C[C@@H]2Oc3c(NC(=O)NC4CCCCC4)cccc3C(=O)N([C@@H](C)CO)C[C@@H]2C)cc1 the results were A1 apoptosis 2 0.5.
Screening COc1ccc(S(=O)(=O)N(C)C[C@H]2Oc3c(NC(=O)Nc4ccc(F)cc4)cccc3C(=O)N([C@@H](C)CO)C[C@@H]2C)cc1 returned A1 apoptosis 2 -0.1.
O=C(CCCCC(=O)N/N=C/c1nccs1)NO was read as A1 apoptosis 2 1.8.
Screening C[C@@H]1CN([C@@H](C)CO)C(=O)c2cccc(NC(=O)CCCCCC(=O)Nc3ccccc3N)c2O[C@@H]1CN(C)S(=O)(=O)c1cccs1 returned A1 apoptosis 2 -0.5.
For C[C@@H]1CN([C@@H](C)CO)C(=O)Cc2cc(NC(=O)Cn3cnnn3)ccc2O[C@H]1CN(C)C(=O)Nc1ccccc1 the results were A1 apoptosis 2 -2.2.
C[C@H]1CCCCO[C@H](CN(C)C(=O)Cc2ccccc2)[C@@H](C)CN([C@@H](C)CO)C(=O)c2cc(NC(=O)Nc3ccc4c(c3)OCO4)ccc2O1 was read as A1 apoptosis 2 0.7.
C[C@@H]1CN([C@@H](C)CO)C(=O)c2cc(NS(C)(=O)=O)ccc2O[C@H]1CN(C)C(=O)Nc1cccc2ccccc12 was read as A1 apoptosis 2 0.9.
Screening C[C@@H]1CCCCO[C@H](CN(C)Cc2ccccc2)[C@@H](C)CN([C@@H](C)CO)C(=O)c2cc(NC(=O)Nc3ccc(F)cc3)ccc2O1 returned A1 apoptosis 2 1.1.
`Cc1noc(C)c1NC(=O)Nc1ccc2c(c1)C(=O)N([C@@H](C)CO)C[C@H](C)[C@@H](CN(C)C(=O)CCCN(C)C)OCCCC[C@H](C)O2` gave A1 apoptosis 2 -1.3.

Of the compounds above, 7 contain a CF3 group:
C[C@H]1CCCCO[C@@H](CN(C)C)[C@@H](C)CN([C@@H](C)CO)C(=O)c2cc(NC(=O)Nc3ccc(C(F)(F)F)cc3)ccc2O1 was read as A1 apoptosis 2 0.1.
For C[C@H]1CCCCO[C@@H](CN(C)C(=O)Nc2ccc(F)cc2)[C@@H](C)CN([C@@H](C)CO)C(=O)c2cc(NC(=O)Nc3ccc(C(F)(F)F)cc3)ccc2O1 the results were A1 apoptosis 2 -0.5.
Screening CC(C)NC(=O)N(C)C[C@@H]1Oc2ccc(NC(=O)Nc3ccc(C(F)(F)F)cc3)cc2C(=O)N([C@@H](C)CO)C[C@H]1C returned A1 apoptosis 2 -0.4.
`C[C@H]1CN([C@@H](C)CO)C(=O)CCCn2nncc2CO[C@H]1CN(C)Cc1ccc(C(F)(F)F)cc1` gave A1 apoptosis 2 -0.3.
C[C@@H]1CN([C@H](C)CO)C(=O)c2cc(NC(=O)CCC(F)(F)F)ccc2O[C@@H](C)CCCCO[C@H]1CN(C)C(=O)Cc1ccccc1 was read as A1 apoptosis 2 -0.4.
For C[C@@H]1CCCCO[C@@H](CN(C)C(=O)Nc2ccc(C(F)(F)F)cc2)[C@H](C)CN([C@H](C)CO)C(=O)c2cc(NC(=O)Nc3ccc(F)cc3)ccc2O1 the results were A1 apoptosis 2 -1.1.
COc1ccc(NC(=O)N(C)C[C@H]2OCCCC[C@@H](C)Oc3ccc(NC(=O)Nc4ccc(C(F)(F)F)cc4)cc3C(=O)N([C@H](C)CO)C[C@@H]2C)cc1 was read as A1 apoptosis 2 -0.1.

(more compounds)
C[C@@H]1CCCCO[C@H](CN(C)Cc2ccc3c(c2)OCO3)[C@@H](C)CN([C@@H](C)CO)C(=O)c2cc(NC(=O)c3ccncc3)ccc2O1 was read as A1 apoptosis 2 -0.4.
`Cc1noc(C)c1S(=O)(=O)Nc1ccc2c(c1)C(=O)N([C@H](C)CO)C[C@@H](C)[C@@H](CN(C)C(=O)Nc1ccc3c(c1)OCO3)O2` gave A1 apoptosis 2 -0.7.
C[C@@H]1CN([C@@H](C)CO)C(=O)c2cc(NC(=O)Nc3ccc4c(c3)OCO4)ccc2O[C@@H](C)CCCCO[C@H]1CN(C)C(=O)Nc1cccc2ccccc12 was read as A1 apoptosis 2 0.7.
C[C@H](CO)N1C[C@H](C)[C@H](CN(C)Cc2ccc(Cl)c(Cl)c2)Oc2c(NS(=O)(=O)c3cn(C)cn3)cccc2C1=O was read as A1 apoptosis 2 -1.6.
C[C@]12CCC3C4(C=CC5(C=C4C(=O)C4CCCCC4)C[C@@H](O)CC[C@]35C)C1CC[C@@]2(O)CN1CCC(n2c(=O)[nH]c3ccccc32)CC1 (stereo not given in full) was read as A1 apoptosis 2 -1.1.
C[C@@H]1CCCCO[C@@H](CN(C)S(=O)(=O)c2cccs2)[C@@H](C)CN([C@@H](C)CO)C(=O)c2cc(NC(=O)Cc3ccccc3)ccc2O1 was read as A1 apoptosis 2 0.2.
For Cc1noc(C)c1NC(=O)N(C)C[C@@H]1OCCCC[C@@H](C)Oc2ccc(NS(=O)(=O)c3cn(C)cn3)cc2C(=O)N([C@H](C)CO)C[C@H]1C the results were A1 apoptosis 2 0.7.
Screening C[C@@H]1CCCCO[C@H](CN(C)Cc2ccncc2)[C@@H](C)CN([C@H](C)CO)C(=O)c2cc(NC(=O)C3CCCCC3)ccc2O1 returned A1 apoptosis 2 0.2.
`COc1ccc(NC(=O)N(C)C[C@@H]2Oc3ccc(NS(=O)(=O)c4c(C)noc4C)cc3C(=O)N([C@H](C)CO)C[C@H]2C)cc1` gave A1 apoptosis 2 0.5.
`C[C@@H]1CN([C@H](C)CO)C(=O)c2cccc(NS(C)(=O)=O)c2O[C@H]1CN(C)Cc1ccncc1` gave A1 apoptosis 2 -0.5.
COc1cc(/C=N/NC(=O)c2ccccc2O)c([N+](=O)[O-])cc1OC was read as A1 apoptosis 2 0.1.
CC(C)NC(=O)N(C)C[C@@H]1Oc2ccc(NC(=O)Cc3cn(C)c4ccccc34)cc2CC(=O)N([C@H](C)CO)C[C@@H]1C was read as A1 apoptosis 2 1.7.
COc1ccc(NC(=O)N(C)C[C@H]2Oc3c(NC(=O)c4nc5ccccc5s4)cccc3C(=O)N([C@@H](C)CO)C[C@@H]2C)cc1 was read as A1 apoptosis 2 -0.7.
For CC(C)NC(=O)Nc1ccc2c(c1)CC(=O)N([C@H](C)CO)C[C@H](C)[C@H](CN(C)C(=O)Nc1ccc(F)cc1)O2 the results were A1 apoptosis 2 0.3.
Cc1noc(C)c1S(=O)(=O)N(C)C[C@@H]1OCCCC[C@@H](C)Oc2ccc(NS(=O)(=O)c3cccs3)cc2C(=O)N([C@@H](C)CO)C[C@@H]1C was read as A1 apoptosis 2 0.3.
O=C(N/N=C/c1ccc(OCc2ccccc2)cc1O)c1ccccn1 was read as A1 apoptosis 2 -7.7.
`COc1ccc(NC(=O)Nc2ccc3c(c2)C(=O)N([C@H](C)CO)C[C@H](C)[C@H](CN(C)C(=O)Nc2ccc(C(F)(F)F)cc2)OCCCC[C@H](C)O3)cc1` gave A1 apoptosis 2 0.9.
For C[C@H](CO)N1C[C@H](C)[C@H](CN(C)C(=O)Nc2ccc3c(c2)OCO3)Oc2ccc(NC(=O)c3ccncc3)cc2CC1=O the results were A1 apoptosis 2 0.3.
For C[C@H]1CCCCO[C@H](CN(C)C(=O)c2ccccc2)[C@@H](C)CN([C@@H](C)CO)C(=O)c2cc(NS(=O)(=O)c3ccc(Cl)cc3)ccc2O1 the results were A1 apoptosis 2 -0.2.
Screening C[C@@H]1CN([C@@H](C)CO)C(=O)c2cccc(NS(C)(=O)=O)c2O[C@H]1CN(C)Cc1ccccc1 returned A1 apoptosis 2 -0.1.
For C[C@@H]1CN([C@@H](C)CO)C(=O)Cc2cc(NC(=O)CCCCCC(=O)Nc3ccccc3N)ccc2O[C@@H]1CN(C)C(=O)Nc1ccc(F)cc1 the results were A1 apoptosis 2 0.3.

Not all compounds are listed; rates above refer to the full screens.
